From PubChem BioAssay
PrP UTR inh – inhibition of PrP 5' UTR reporter expression; inhibition, % (no concentration beside the values); cell-based PrP 5' UTR mRNA reporter, plate reader; 0.35% of 340,000 active;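 active = every replicate at 50% or more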;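 note: 0 = median of the neutral control wells; tested in H4 reporter cells; numbers are from one replicate; inactives centre near -14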
Autofluor counter – compound fluorescence in toxin protease inhibitor counterscreen; AID 624483; compound autofluorescence counterscreen, microsphere flow cytometry; hits give high values; 3.1% of 360,000 active; fluorescence intensity (no concentration beside the values);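 active = at least 3 SD above the mean of all compounds, about 16000 in these data; inconclusive = too few beads counted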;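 note: 100 nL of 1 mM stock went into each well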
BJeLR lethal – MLPCN primary cell-based screen for lethality selective to Ras in HRASV12 cells; BJeLR (HRASV12) viability, CellTiter-Glo ATP luminescence, 48 h; reference of the scale not given here; inhibition, % (test concentration not listed); 0.17% of 300,000 active; AID 1554, 2009;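 active = replicate mean above 50%; inconclusive = above 50% but judged a plate artefact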;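 note: 50 nL library stock added to about 25 µL; numbers are from one replicate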
ugtP null kill – growth inhibition of ugtP-null S. aureus, primary screen, RN4220 ugtP deletion, OD600. 0.54% of 330,000 active. AID 1259309, 2017. growth inhibition, % (concentration not given with the values). 16 h; some inactives read as strong as hits;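 active = z-score under -3 and OD600 up to 0.15 on both plates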;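 note: plate controls were untreated wells for no effect and antibiotic for full effect; wells of about 80 µL received 100 nL stock; the first replicate is given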
Sa RN4220 lethal – growth inhibition of S. aureus RN4220, primary screen, OD600 | inhibition, % (concentration not given with the values) | 0.33% of 330,000 active | 16 h;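 active = z-score of -3 or lower and OD600 up to 0.18 on both plates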;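 note: plate controls were untreated cells for no effect and reference antibiotic for full effect; stock transfer was 100 nL into about 80 µL; one replicate is shown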
Mtb hypoxia inh – PubChem AID 1159583 | M. tuberculosis hypoxia-regulated fluorescent reporter, fluorescence | fluorescence inhibition, % (test concentration not listed) | 0.1% of 300,000 active;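 active = 35 to 45% if threefold the growth effect, above 45% if 1.5-fold the growth effect; inactive = the rest, general growth blockers included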;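 note: wells of about 50 µL received 100 nL stock; 0% = vehicle wells and 100% = reference inhibitor wells; whole bacteria with a GFP reporter of the hypoxia response; strong numbers were not always called active; many hits fall short of the cut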
Mtb hypoxia inh growth – also measured in Mtb hypoxia inh; calls as there; growth inhibition, %; measured here: M. tuberculosis growth (absorbance);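 0% = vehicle and 100% = reference antibiotic; read after six days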
* hit, by the source's call; u = inconclusive; x = not tested or not shown.

SMILES	PrP UTR inh	Autofluor counter	BJeLR lethal	ugtP null kill	Sa RN4220 lethal	Mtb hypoxia inh	Mtb hypoxia inh growth
CC1(OC(=O)C2CCCC2)C(=O)C=C2C=C(c3ccsc3)N(Cc3ccccc3)C=C2C1=O (stereo not drawn)	0	3528	-9	9	-0.6	3	-6
Clc1ccc(CNc2nnnn2-c2ccccc2)c(Cl)c1	-7	2677	-8	-5	5.7	x	x
O=C(N/C(=C\c1ccccc1)C(=O)N1CCCCC1)c1ccc(Br)o1	-6	6400	6	6	-0.7	2	2
Cc1cc(=O)oc2cc(OCC(=O)N(C)C3CCS(=O)(=O)C3)c(Cl)cc12 (stereo not drawn)	-22	5912	3	2	0.0	7	5
COc1cccc(NC(=S)Nc2ccc(O)cc2)c1	-27	3640	5	-1	0.4	-6	11
O=C1CCN(S(=O)(=O)c2ccccc2)CCN1CCOCc1ccc(C(F)(F)F)cc1	-6	3041	2	11	8.0	3	-1
c1ccc(C2CC(c3cccs3)Nc3nnnn32)cc1 (stereo not drawn)	-13	4111	7	6	2.4	6	-1
CN(C)S(=O)(=O)c1cccc(C(=O)Nc2n[nH]c(C(F)(F)F)n2)c1	-6	6345	-4	x	x	x	x
Cc1ccc(C(=O)O/N=C(\N)c2cccnc2)cc1[N+](=O)[O-]	-52	2175	10	0	4.4	-4	6
CC(=O)NC12CC3CC(C1)CC(C(=O)NCC(=O)Nc1c(C)cc(C)cc1C)(C3)C2	-5	6307	x	0	2.0	3	1
CCCn1c(=O)[nH]c(=O)c2c(C(=O)OCC)cc(-c3cccs3)nc21	-7	4363	2	-1	4.8	-8	11
CCN(CC)c1ccc(/C=N/NC(=O)CCC(=O)NCc2ccccc2)c(O)c1	17	1968	-6	x	x	x	x
CC(C)c1ccc(/C=N/NC(=O)C(=O)NCCCN2CCOCC2)cc1	-17	2036	4	x	x	x	x
Cn1c(COc2ccc3ccccc3c2)nnc1SCC(N)=O	-49	9371	-2	-8	7.5	8	2
COc1cccc(CNc2nc3ccccc3n2C)c1O	-66	4218	-1	x	x	x	x
CC1CCCC(C)N1C(=O)COC(=O)COc1ccc(C#N)cc1 (stereo not drawn)	-11	2931	x	2	3.5	x	x
Cc1ccc(NC(=O)C2(N(C(=O)Cn3nnnc3N)c3ccc(C)cc3)CCCCC2)cc1	12	2400	2	4	1.7	x	x
O=C(O)CN1C(=O)CSC1=S	-32	3120	2	13	4.5	5	-3
CC(C)CNC(=O)C1CCN(c2ccc(S(=O)(=O)N3CCOCC3)cc2[N+](=O)[O-])CC1	-10	3578	2	11	2.9	2	1
NC(=S)NN=Cc1cccc(O)c1O	x	x	x	-5	3.0	13	-4
O=C(NCCCn1ccnc1)/C(=C/c1ccc(Cl)cc1)NC(=O)c1ccccc1	-21	4208	-8	5	2.3	15	3
CCCC(C)NC(=O)Cc1ccc(S(=O)(=O)N2CCOCC2)s1 (stereo not drawn)	-10	4022	x	-5	1.4	-9	5
COc1ccc(NC(=O)c2csc(Cc3ccccc3)n2)cc1	-21	3187	-3	11	-0.3	x	x
NC(=O)NC(=O)CSc1ccccc1	-15	4083	-17	6	2.3	-3	0
CN(C)N1C(N)=C(C#N)C(c2ccsc2)C2=C1CC(C)(C)CC2=O (stereo not drawn)	-6	2466	9	0	4.7	4	1
O=C(CSc1ccc(-c2cccnc2)nn1)Nc1ccc(F)c(F)c1	-2	5858	-13	4	2.6	4	14
CN1CCc2c1nc1ccccc1c2N=C1CCCN1Cc1ccccc1	-11	2202	8	-6	2.0	10	13
CC(=O)N1N=C(c2ccc(C)o2)CC1c1cccc(F)c1 (stereo not drawn)	-23	2737	-3	-4	4.1	11	13
COc1cc(NC(=O)CSc2nnnn2C2CCCC2)cc(OC)c1	-28	3796	2	x	x	x	x
COC(=O)NN=Cc1cc(C)n(-c2ccccc2)c1C	x	x	x	-2	-1.9	-5	2

Nothing new here: an excerpt of the list.
SMILES	PrP UTR inh	Autofluor counter	BJeLR lethal	ugtP null kill	Sa RN4220 lethal	Mtb hypoxia inh	Mtb hypoxia inh growth
O=C(CSc1ccc(-c2cccnc2)nn1)Nc1ccc(F)c(F)c1	-2	5858	-13	4	2.6	4	14
CN1CCc2c1nc1ccccc1c2N=C1CCCN1Cc1ccccc1	-11	2202	8	-6	2.0	10	13

(next part)
SMILES	PrP UTR inh	Autofluor counter	BJeLR lethal	ugtP null kill	Sa RN4220 lethal	Mtb hypoxia inh	Mtb hypoxia inh growth
CC1CCN(C(=S)c2cn(Cc3ccc(F)cc3)c3ccccc23)CC1	-1	4713	-10	26	-4.5	13	10
O=C(CCN1C(=O)c2ccccc2S1(=O)=O)Nc1cccc(F)c1	-22	u	-1	-1	2.7	-3	1
Cc1cnc(NC(=O)CC2CCCC2)s1	-29	3257	-8	4	1.0	7	4
O=C(c1cccs1)N1CCN(Cc2cccc([N+](=O)[O-])c2)CC1	-8	2612	-7	5	-4.4	0	9
COc1ccc(-c2nn(-c3ccccc3)cc2CN(C)CCn2ccnc2C)c(F)c1	-11	6282	17	1	2.7	-4	4
O=C(Nc1ccc(Br)cc1)Nc1ccccc1F	-100	2669	3	-14	-15	4	8
COc1cccc2c(=O)ccoc12	-13	2953	-1	10	5.8	10	4
COC(=O)Cc1[nH]n(-c2ccccc2)c(=O)c1C(C)=Nc1ccccc1	-30	2480	-11	8	3.9	1	11
CCc1ccc(/C=C2\Oc3c(ccc(O)c3CN3CCN(CCO)CC3)C2=O)cc1	0	5256	2	-7	1.5	3	15
Cn1cnnc1Sc1nc([N+](=O)[O-])nn1C	-29	2226	1	28	-0.8	-11	-7
O=C1COc2ccc(S(=O)(=O)NCCc3ccccc3)cc2N1	2	4073	-8	-1	3.6	1	-7
CCN1CCCC1CNC(=O)C(=O)NC (stereo not drawn)	-25	4306	-10	8	-4.9	-5	8
COc1ccc(C)cc1NCc1cc(=O)oc2cc(-c3ccccc3)c(O)cc12	-21	2208	8	-25	0.0	8	5
Cc1nc(C(C)N(C)Cc2c(C(=O)N3CCCCC3)nc3c(C)cccn23)c(C)s1 (stereo not drawn)	-22	2073	0	-4	5.7	2	5
Cc1nn(Cc2ccc(Cl)cc2)c(C)c1NC(=O)c1noc2c1CCc1ccccc1-2	-8	5719	-15	7	-1.0	5	4
O=C(Nc1cccc(Cl)c1)c1ccncc1	-10	4918	-13	-2	-0.8	x	x
CCOc1ccc(N2C(=O)c3cccnc3C2Nc2ccc(C)cc2)cc1 (stereo not drawn)	2	8164	-2	-1	6.3	5	11
CCCS(=O)(=O)N1CCCC(C(=O)NCCN(CC)CC)C1 (stereo not drawn)	-17	3041	0	0	-17	12	3
CC(OC(=O)c1cccnc1)C(=O)NCc1ccc2c(c1)OCO2 (stereo not drawn)	-33	2512	-13	-8	9.1	3	-5
CCN(CCN1CCCC1)C(=O)c1cc(COc2ccccc2SC)on1	-17	7831	1	x	x	x	x

A draw from above in order of SMILES length, descending.
SMILES	PrP UTR inh	Autofluor counter	BJeLR lethal	ugtP null kill	Sa RN4220 lethal	Mtb hypoxia inh	Mtb hypoxia inh growth
COc1ccc(C)cc1NCc1cc(=O)oc2cc(-c3ccccc3)c(O)cc12	-21	2208	8	-25	0.0	8	5
O=C(Nc1cccc(Cl)c1)c1ccncc1	-10	4918	-13	-2	-0.8	x	x
CCN1CCCC1CNC(=O)C(=O)NC (stereo not drawn)	-25	4306	-10	8	-4.9	-5	8

Back to the main list, repeating the 3 entries before the break.
SMILES	PrP UTR inh	Autofluor counter	BJeLR lethal	ugtP null kill	Sa RN4220 lethal	Mtb hypoxia inh	Mtb hypoxia inh growth
CCCS(=O)(=O)N1CCCC(C(=O)NCCN(CC)CC)C1 (stereo not drawn)	-17	3041	0	0	-17	12	3
CC(OC(=O)c1cccnc1)C(=O)NCc1ccc2c(c1)OCO2 (stereo not drawn)	-33	2512	-13	-8	9.1	3	-5
CCN(CCN1CCCC1)C(=O)c1cc(COc2ccccc2SC)on1	-17	7831	1	x	x	x	x
CC(C)c1ccc(NC(=O)c2cccc(Br)c2)cc1	-99	2064	5	0	5.4	11	4
O=C(NCC1CCCO1)c1cccc(Oc2c(Cl)cccc2[N+](=O)[O-])c1 (stereo not drawn)	-10	4695	3	11	3.6	-2	-3
O=C(CNC(=O)OCc1ccccc1)NCC(=O)N1CCCC1C(=O)OCc1ccccc1 (stereo not drawn)	-13	3174	-8	-1	2.2	x	x
Cc1ccoc1C(=O)NCc1occc1C(=O)O	-24	8185	1	0	0.7	8	0
COc1ccc(NC(=S)NCCC(c2ccccc2)c2ccccc2)c(OC)c1	0	3437	14	27	-4.6	x	x
CCOC(=O)c1c(C)c(C(=O)NC(C)COC)c(C)n1CC (stereo not drawn)	-27	10631	-8	0	2.9	2	7
Cc1ccc(NC(=O)COC(=O)CCc2nc3ccccc3c(=O)[nH]2)c(Br)c1	3	4136	-7	-3	-2.4	-9	14
Cn1c(C(=O)N2CCCC(C(=O)N3CCN(C(=O)c4ccco4)CC3)C2)cc2sccc21 (stereo not drawn)	-2	4162	x	2	3.4	x	x
COCc1nnc(NC(=O)c2ccc(S(=O)(=O)N3CCCc4ccccc43)cc2)o1	-16	2619	-7	9	29	-9	2
NS(=O)(=O)c1ccc(CNC(=O)NC23CC4CC(CC(C4)C2)C3)cc1	-4	17603*	6	5	1.1	7	8
c1ccc(N2CCCCC2)c(NC2=NCCC2)c1	-10	2501	1	3	-6.9	25	6
O=C1Nc2ccc(Cl)cc2C(=O)C1(F)c1ccccc1 (stereo not drawn)	x	x	-11	10	2.1	0	6
O=C(Nc1cccc(NC(=O)c2ccccc2Cl)c1)c1ccc(F)cc1	-10	x	6	-2	8.3	6	2
CC(C)(C)[C@@H]1C=C(C(=O)Nc2ccccc2)O[C@H](OCc2ccc(CO)cc2)C1	-23	4103	-5	x	x	x	x
Cc1[nH]c2ccc(C(=O)N3CCN(c4ccccn4)CC3)cc2c1C	-9	3512	7	13	8.3	-14	3
CCOc1ccc(N2C(=O)C3ON(C)C(c4ccc([N+](=O)[O-])cc4)C3C2=O)cc1 (stereo not drawn)	-16	4181	17	14	3.4	4	2
O=C1C2C3C=CC([C@@H]2C(=O)N1C1CCCCC1)[C@H]1C(=O)N(C2CCCCC2)C(=O)C31 (stereo partly drawn)	-2	3203	1	3	5.3	x	x
CCOP(=O)(OCC)c1nc(-c2ccc(Cl)cc2)oc1NCc1ccccc1	-7	4372	7	-23	-6.5	-11	9
N#CCSc1n[nH]c2nc3c(c(=O)n12)C1(CCCCC1)Cc1ccccc1-3	-18	5625	1	30	9.5	11	7
CCOC(=O)C1C2COc3ccccc3C2N2C(=O)c3cc(Cl)ccc3NC(=O)[C@@]12C (stereo partly drawn)	x	x	x	-12	-0.3	-5	9
C[C@H](NC(=O)OC(C)(C)C)C(=O)N/N=C/c1cccc2nccnc12	-4	u	-2	x	x	x	x
COc1ccc(CN2C(=O)C(Cc3ccccc3)Nc3ncnc(N4CCN(c5ccccc5)CC4)c32)cc1 (stereo not drawn)	-24	3213	7	0	0.8	-7	11
CCn1c(SCc2nc3ccccc3[nH]2)nnc1-c1cccs1	-12	21099*	10	8	5.1	-1	-3
O=C(CCn1c(=O)oc2ccccc21)NCCCN1CCN(c2ccc(F)cc2)CC1	-28	5725	-1	5	3.4	19	10
COc1ccc(NC(=O)CN2C(=O)NC(C)(C3CC3)C2=O)cc1S(=O)(=O)N1CCOCC1 (stereo not drawn)	-15	8012	x	5	2.9	-7	4
CC1=NN(c2ccc(Cl)cc2)C(=O)C1C(c1cccc(O)c1)c1c(C)[nH]n(-c2ccc(Cl)cc2)c1=O (stereo not drawn)	-16	2846	8	x	x	x	x
CC(OC(=O)c1cccc([N+](=O)[O-])c1)C(=O)N1CCc2ccccc21 (stereo not drawn)	-2	2742	x	3	4.7	1	-5
Cc1cc2c(cc1C)[n+](C)cn2CC(O)COCC1CC=CCC1 (stereo not drawn)	-19	2113	9	6	1.5	20	13
CCCCN1C=CC(=C2C(=O)c3ccccc3C2=O)C=C1	87*	2467	65*	12	4.8	7	-4
CN(C(=O)c1c(Cl)cnn1C)C12CC3CC(CC(C3)C1)C2	8	2492	7	-3	5.0	11	14
CC1Cc2cc(/C=C3/SC(=S)NC3=O)ccc2O1 (stereo not drawn)	-16	3771	0	63	71	6	7
O=C(CCn1c(=O)oc2ccccc21)N1CCCCCC1	-15	10042	-5	2	2.8	15	11
CC(Oc1cc2oc(=O)c3c(c2cc1Cl)CCC3)C(=O)NCc1ccncc1 (stereo not drawn)	-17	5640	2	10	8.9	11	3
